# Bioassay records deposited in PubChem BioAssay by several laboratories.
# eIF4H FP inh = inhibitors of RNA binding by human eIF4H; Q15056; 290,000 compounds, 0.94% hits; inhibition, % at 35 µM; AID 2012; eIF4H fluorescence polarization binding assay;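 active means 50% or more with normal probe brightness, or confirmed in later tests; about a fifth of its hits are not listed in these tables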;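 further: calls also rest on retests at 20 µM and on dose response follow-up; 0% = protein and probe with vehicle and 100% = probe without protein; strong numbers were not always called active; many hits fall short of the cut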
# PABP FP inh = blocks human PABP binding to poly(A) RNA | P11940 | AID 2014 | inhibition, % at 35 µM | fluorescence polarization | 290,000 compounds, 1% hits;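 active means 50% or more with normal probe brightness, or confirmed in later tests; about a fifth of its hits are not listed in these tables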;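 further: calls also rest on retests at 20 µM and on dose response follow-up; controls were probe without protein and protein plus probe with vehicle; some compounds called inactive have numbers as strong as hits; many hits fall short of the cut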
# Target sequence (P11940 whole entry, looked up): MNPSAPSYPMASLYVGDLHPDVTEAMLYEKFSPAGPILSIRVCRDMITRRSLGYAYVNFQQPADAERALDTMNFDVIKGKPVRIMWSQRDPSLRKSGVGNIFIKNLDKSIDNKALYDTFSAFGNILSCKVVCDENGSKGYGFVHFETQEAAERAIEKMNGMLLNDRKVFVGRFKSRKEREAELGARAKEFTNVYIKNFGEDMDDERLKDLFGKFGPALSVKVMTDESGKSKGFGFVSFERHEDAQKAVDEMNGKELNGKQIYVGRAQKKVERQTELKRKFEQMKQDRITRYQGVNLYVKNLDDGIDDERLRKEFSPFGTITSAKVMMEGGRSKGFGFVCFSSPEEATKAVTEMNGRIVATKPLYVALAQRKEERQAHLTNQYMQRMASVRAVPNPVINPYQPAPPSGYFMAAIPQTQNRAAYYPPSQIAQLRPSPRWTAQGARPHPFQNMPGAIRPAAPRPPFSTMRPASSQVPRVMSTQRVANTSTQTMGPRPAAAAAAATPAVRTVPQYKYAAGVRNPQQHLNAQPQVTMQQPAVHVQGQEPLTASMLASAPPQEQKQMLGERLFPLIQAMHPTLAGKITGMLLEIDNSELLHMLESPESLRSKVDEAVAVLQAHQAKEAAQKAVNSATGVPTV
# MT1-MMP act inh = MT1-MMP (human) activation inhibition. HT1080 RFP-PRO-GFP cells, GFP/RFP ratio fluorescence, overnight; percent of plate control window, DMSO zero. GFP/RFP ratio change, % at 20 µM. 360,000 compounds, 0.061% hits. AID 651647;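 active means GFP/RFP ratio change of at least 30% with cell ATP level not reduced by more than half and red fluorescence within 50% of control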; further: strong numbers were not always called active
#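 Compound: 20 µM single dose, 1% DMSO / System: HT1080 RFP-PRO-GFP cells / Controls: DMSO and RFP-L50D-GFP cell wells / Read-out basis: GFP/RFP fluorescence ratio / Schedule: overnight compound exposure at 37 °C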
# HIV Env fusion = HIV envelope-mediated fusion inhibition | 360,000 compounds, 1.1% hits | inhibition, % at 12.3 µM | AID 651610 | HeLa-JRFL Env/CEM21 cell fusion, luciferase;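 active means mean replicate inhibition score of at least 50 and every replicate individually at or above 50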;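 further: 0% = plate neutral controls and 100% = maraviroc near 300 nM; one replicate is shown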
# Yeast UUG start = yeast start codon fidelity modulation | S. cerevisiae UUG-firefly luciferase reporter, luminescence/redox ratio | activity score, % at 18.7 µM | 350,000 compounds, 0.13% hits;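 active means replicate mean at a twofold rise or more, about +100% in these data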;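 further: firefly luciferase made from a UUG start codon reports start codon fidelity; reporter light over untreated wells divided by growth signal over untreated wells; some hits fall short of that in this replicate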
# CSC inhib = blocks cancer stem cells. 300,000 compounds, 1.1% hits. AID 2717. cancer stem cell-like cells viability, luminescence. inhibition, % at 7.5 µM;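 active means mean at 75% or more and at least half the replicates too; tested in HMLE shEcad cells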;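 further: 0% = median of negative and 100% = median of positive control wells; the first replicate is given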
# Rce1 inh = inhibitors of yeast Ras-converting enzyme; Q03530; yeast membranes, quenched prenylated peptide cleavage fluorescence; calls only; 290,000 compounds, 0.27% hits; AID 2563;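 active means fall in fluorescence gain of 50% or more versus controls, with final raw signal at or below 3038400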;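 further: plate controls were neutral control wells for no effect and wells lacking membranes for full effect; tested at 10 µM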
# eIF4H FP inh retest = also measured in eIF4H FP inh; calls as there; inhibition, %; compound at 20 µM; confirmation average;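 mean of two retest wells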
# PABP FP inh retest = second read-out of PABP FP inh, no call of its own (marks repeat the call); inhibition, %; compound at 20 µM; confirmation repeats;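 mean of two retest wells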
# MT1-MMP act inh RFP = further read-out of MT1-MMP act inh, marked with its call; RFP signal change, %; measured here: RFP expression control read;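 0 = vehicle wells; hits needed this value within 50% of zero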
# Active calls of the source: *; i = inactive; . = no result given. These rows are one share of the data. The share of hits here may be higher or lower than overall.
SMILES,eIF4H FP inh,PABP FP inh,MT1-MMP act inh,MT1-MMP act inh RFP,HIV Env fusion,Yeast UUG start,CSC inhib,Rce1 inh,others
COc1cccc(CNC(=O)CCCn2nc(C)n3c(cc4sccc43)c2=O)c1,4.0,6.7,0.0,-1.9,2.6,-16.0,-8.8,i,
O=C(CN1C(=O)NC2(CCc3ccccc32)C1=O)Nc1cc(C(F)(F)F)ccc1N1CCOCC1 (configuration not stated),-17.9,-4.0,.,.,-75.7,.,-7.1,i,
COc1ccc(NC(=O)c2scc(S(=O)(=O)C(C)C)c2N)cc1,-2.8,2.9,4.7,0.1,-46.4,.,-7.3,i,
CN(CCCNC(=O)CCc1cn(C)c2ccccc12)C1CCCCC1,-3.1,-3.6,6.1,6.6,11.2,10.0,6.4,i,
CCOC(=O)COc1ccc2c(c1)c(C(=O)OCC)c(C)n2CC,-7.0,-6.5,1.5,1.1,.,.,0.1,i,
CN(C)C(=O)CCCCCCCCC(=O)N(C)C,-4.3,2.2,-3.0,-1.1,2.8,-0.7,-1.4,i,
O=C(Nc1cnccn1)c1cccnc1,9.0,2.9,2.4,2.5,.,3.2,-16.0,i,
CC(C)(C)OC(=O)N1CCC2(CC1)C(C#N)=C(N)OC1=C2C(=O)CCC1,2.0,1.7,-6.2,2.2,0.1,-8.4,-7.3,i,
CCOC(=O)C=C(OC(=O)c1ccc(OC)cc1)c1ccccc1,.,.,-8.0,-5.7,-1.6,0.3,.,.,
CCOC(=O)C1CCN(CCCSc2ccc(C)cc2)CC1,.,.,4.9,0.3,8.0,-34.2,-4.6,i,
Cc1ccc(C2C3=C(CCCC3=O)Nc3[nH]c(=S)[nH]c(=O)c32)cc1 (configuration not stated),-6.6,1.7,0.6,2.9,-32.0,-15.3,-13.4,i,
O=C(c1ccccc1NS(=O)(=O)c1cccc(C(F)(F)F)c1)N1CCc2ccccc21,13.4,15.1,-2.7,-2.4,-7.0,-14.7,-2.8,i,
COc1ccc(C(=O)CSc2nncn2C)cc1,-8.0,-5.6,-2.7,0.9,.,-6.6,-21.0,i,
COc1ccccc1C(=O)COC(=O)c1nc(Cl)ccc1Cl,.,.,-2.7,2.2,1.3,.,.,i,
O=C(O)c1cc2ccccc2cc1Nc1ccccc1,3.4,7.5,.,.,-3.7,-16.5,3.4,i,
COc1cc(CC2COC(=O)C2(O)Cc2ccc(O)c(OC)c2)ccc1O (configuration not stated),-3.4,9.9,0.0,-29.8,.,-13.0,-10.1,i,
CCOC(=O)C1=CCC(c2ccc(CC)cc2)N(S(=O)(=O)c2ccc(C)cc2)C1 (configuration not stated),.,.,-1.0,-13.0,-7.0,-74.9,.,.,
O=C(NCc1ccccc1)c1ccc(F)c(F)c1,0.1,2.1,-1.3,1.5,7.3,.,-8.1,i,
O=C(CN1C(=O)c2ccccc2C1=O)OCC(=O)c1ccccc1,.,.,2.8,0.0,-23.1,-13.5,5.9,i,
COc1ccccc1OCC(=O)Nc1ccccc1C(=O)NCc1ccco1,-6.3,-7.2,3.2,-1.4,.,-5.4,-6.9,i,
CC(=C/c1ccccc1)/C=C1/SC(N2CCOCC2)=NC1=O,-0.9,-6.8,1.9,-1.5,-68.7,-11.0,3.1,i,
C/C(=N/NC(=O)c1cccs1)c1ccco1,-1.7,-0.1,2.9,3.0,-21.8,.,6.6,i,
O=C(/C=C/c1ccc(F)cc1)NC(=S)N1CCN(Cc2ccccc2)CC1,-17.1,-16.2,2.9,-2.8,7.5,-22.7,1.3,.,
COc1cc(OC)cc(C(=O)N[C@H](C(=O)OCC(=O)N2CCc3ccccc32)C(C)C)c1,8.8,4.4,1.7,1.9,12.3,.,-0.6,i,
COCCn1cc(C(=O)c2ccccc2OCC(=O)Nc2cc(C)on2)cc(C#N)c1=O,-2.7,-12.8,-3.3,-1.4,.,-1.9,-6.5,i,
CCOC(=O)C(Cc1ccccc1)NC(=O)CCC(=O)c1ccc(OC)cc1 (configuration not stated),-3.3,-2.7,0.7,1.7,4.2,-10.3,2.5,i,
CCC(=O)NC1(C(F)(F)F)C(=O)Nc2c1c(=O)n(C)c(=O)n2C (configuration not stated),-4.3,-2.0,5.0,4.5,-0.1,-11.8,1.4,i,
N#Cc1nc(COc2ccccc2)oc1N1CCCC1,-8.1,1.4,-10.6,-5.6,.,6.3,2.1,i,
COc1ccc(S(=O)(=O)N2CCC3CC2c2cc(-c4ccc5c(c4)OCO5)ccc23)cc1 (configuration not stated),.,.,0.4,-2.7,6.2,-10.1,.,.,
COc1ccc(C2=CN(Cc3ccccc3)CCC2=O)cc1,.,.,5.5,-6.6,2.9,10.9,.,.,
CC(C)NC(=S)n1cc(C(=O)c2cc(Cl)cc(Cl)c2O)cn1,-10.4,-1.9,-0.4,2.3,22.1,-6.2,33.7,i,
CNCc1ccc(OCc2ccccc2)c(OC)c1,-4.1,1.6,-1.2,0.4,-50.4,-17.3,-10.4,i,
Cc1ccc2[nH]c(=O)c(-c3noc(CC(C)C)n3)cc2c1,-5.4,-0.5,2.1,-0.5,-90.4,-13.8,-4.9,i,
C=CCNc1nc(C(=O)OCC(=O)Nc2cccc(SC)c2)cs1,.,.,1.3,-0.6,-10.0,-17.7,.,.,
CCCN=C1N(C)C[C@@H]2[C@@H]3C(=O)N(Cc4ccccc4)C(=O)[C@@H]3[C@](CC)(C(=O)OC)N12,.,.,0.4,-0.1,2.4,-16.8,.,.,
CCCCNC(=O)CCC(=O)NNc1nc2ccccc2c2nc(-c3ccccc3)nn12,92.4,-2.0,10.2,4.2,.,.,2.7,i,eIF4H FP inh retest=-11.3;PABP FP inh retest=14.9
Cc1ccc(NC(=O)CCC(=O)NNC(=O)COc2cccc3ccccc23)c(C)c1,5.3,-6.9,0.7,3.1,.,-8.9,-8.3,i,
Cc1nnc(NNS(=O)(=O)c2ccc(Cl)cc2)[nH]c1=O,0.7,0.9,-3.8,0.7,-10.1,.,-20.6,i,
COc1ccc(OC)c(S(=O)(=O)Nc2c(C)cccc2C)c1,4.5,2.7,0.0,-1.4,-0.6,-6.7,-10.6,i,
CCC(=O)Nc1nnc(-c2ccccn2)o1,-10.0,5.1,1.3,6.6,5.6,.,-14.7,i,
CCOC(=O)c1sc(NC(=S)NC(=O)c2ccc(OC)cc2)nc1C,-6.2,-7.9,2.1,-5.4,-8.7,-19.1,3.3,i,
COc1ccc(C(C)(C)C)cc1NC(=O)CSc1ncn[nH]1,.,.,6.4,-3.3,13.9,-27.2,.,.,
Cn1c(CC(=O)Nc2ccccc2Cl)nnc1SCC(=O)Nc1nncs1,2.7,10.5,0.3,1.2,-3.3,-11.4,-20.4,i,
C/C(CC(=O)Nc1cc(C)ccn1)=N\NC(=O)c1ccncc1,7.1,-0.4,3.5,5.4,6.0,-9.1,-3.9,i,
CC1=C(C(=O)OC(C)C)C(c2ccc(N(C)C)cc2)C2=C(CC(C)(C)CC2=O)N1 (configuration not stated),2.4,1.6,-13.8,-9.8,-14.6,-0.8,-18.9,i,
O=C(N/N=C/c1ccc(OCC(=O)N2CCCCC2)cc1)c1ccccc1O,1.1,7.9,-0.5,1.3,-20.0,-25.6,-10.7,i,
CN(Cc1nccs1)C(=O)c1ccc(OC2CCN(CCc3ccccc3)CC2)cc1,0.6,-6.2,1.8,4.6,6.5,-14.2,3.3,i,
CC(=O)Oc1ccc(C(=O)Nc2ccc(C3(C#N)CCCC3)cc2)cc1,-13.4,-19.4,0.2,-4.9,-31.8,-19.1,95.5*,i,
Brc1ccccc1OCCCN1CCOCC1,4.5,-3.3,-7.0,-0.9,-16.1,-7.9,-6.1,i,
CCc1ccc2cc3c(cc2n1)C(=O)c1ccccc1-3,.,.,0.6,-3.2,-213.5,-43.0,.,.,
CCCN1CCN(C(=S)Nc2ccc3nc(N4CCN(CC)CC4)cc(C)c3c2)CC1,-7.4,-1.7,2.5,1.2,1.2,-19.9,30.2,i,
CCCS(=O)(=O)N1CCN(C(=O)c2cccnc2)CC1,-0.9,9.4,1.1,1.2,-25.0,-3.5,-11.0,.,
COc1ccc(C(=O)NCc2ccccc2CN2CCCC2)cc1S(=O)(=O)N1CCOCC1,.,.,-2.8,1.4,61.9*,-7.3,.,.,
O=C(NC(=S)Nc1ccc(CN2CCOCC2)cc1)c1ccccc1[N+](=O)[O-],2.5,-0.3,3.5,3.1,14.9,-2.4,-2.2,i,
Cc1cccc(C)c1NC(=O)CNC(=O)c1c(C)nn(-c2ccccc2)c1C,.,.,2.3,1.7,-8.7,.,-8.8,i,
N#Cc1c(-c2ccccc2)nc(SCc2nc(N)nc(N3CCCCC3)n2)[nH]c1=O,0.6,3.0,-11.3,-2.4,.,-16.6,0.4,i,
CCOc1cc(-c2cc(-c3ccc(OC)cc3)nc(N)c2C#N)ccc1O,-10.0,-0.4,3.0,-11.3,-51.9,-16.6,21.4,i,
Cc1noc(C)c1S(=O)(=O)N1CCC(C(=O)NC2CCCc3ccccc32)CC1 (configuration not stated),-0.9,-7.9,0.4,1.1,.,-12.7,-0.1,i,
CC(/C=N/n1c(C2CCCCC2)n[nH]c1=S)=C\c1ccccc1,13.3,7.0,2.9,4.7,1.0,-17.3,97.7*,i,
COc1cccc(OC(=O)c2cc3ccccc3oc2=O)c1,-5.3,88.2,-2.1,-6.1,3.9,-7.8,-10.1,i,eIF4H FP inh retest=5.9;PABP FP inh retest=25.4

# Continued.
SMILES,eIF4H FP inh,PABP FP inh,MT1-MMP act inh,MT1-MMP act inh RFP,HIV Env fusion,Yeast UUG start,CSC inhib,Rce1 inh,others
CC(C)(C)C(=O)Nc1nc(=S)ss1,0.1,2.0,3.3,6.2,.,-14.2,17.2,i,
CCN(CC)C(=O)CSc1nc(C)cc(C)n1,-3.7,3.3,1.8,3.1,3.3,.,0.0,i,
O=C(NCC(=O)N(c1ccccc1)C(C(=O)NC1CCCC1)c1ccncc1)c1cccs1 (configuration not stated),-4.7,1.1,0.0,5.2,-2.6,-2.1,3.1,i,
Cc1[nH]c2ccccc2c1CCN(Cc1cccnc1)C(=S)NC(C)(C)C,-6.4,-6.7,-1.2,-0.7,-10.9,-7.5,-5.1,i,
COc1cc(CN(C)Cc2cccc3ccccc23)cc([N+](=O)[O-])c1O,-11.8,1.8,3.6,1.3,9.9,0.5,-2.0,i,
O=C(CN1C(=O)c2cccc([N+](=O)[O-])c2C1=O)OCC(=O)N1CCCCC1,.,.,.,.,10.8,-35.1,6.0,i,
COc1ccc(NC(=O)CSc2nc3[nH]c(=O)[nH]c(=O)c3s2)cc1OC,8.5,1.4,1.5,3.8,-6.6,-19.7,-0.8,i,
Cc1cc(C)cc(N(CC(=O)NCc2ccco2)C(=O)CCC(=O)Nc2nccs2)c1,-4.4,4.2,-4.1,-5.5,3.4,-12.6,-7.9,i,
CN(C)c1ccc(CNCc2cccnc2)cc1,.,.,3.9,-0.1,-8.9,3.1,-8.1,i,
CCOc1cc(CNCc2cccnc2)ccc1OCC(=O)NC(C)(C)C,-0.4,20.6,-2.4,2.2,0.6,26.2,-16.0,i,
Fc1ccccc1OCCCn1ccnc1,10.2,7.5,1.0,2.7,-7.7,-13.8,-16.5,i,
Cc1ccc(NC(=O)CCC(=O)NN=Cc2ccc(C)o2)c(C)c1,.,.,4.6,2.8,-82.9,0.5,.,.,
C=CCn1c(=NC(=O)c2cccs2)sc2cccc(OC)c21,-1.9,-2.1,-7.8,-5.7,3.3,.,52.9,i,
O=C(NCc1ccc(F)cc1)c1cccc2c1C(=O)c1ccc(N3CCC(Cc4ccccc4)CC3)cc1S2(=O)=O,.,.,-147.2,-13.2,32.7,-14.0,.,.,
